Bioassay records: PubChem BioAssay, ICCB-Longwood Screening Facility, Harvard Medical School
CapD inh: Bacillus anthracis CapD inhibitors, primary screen, biochemical, fluorescence intensity | CapD gamma-glutamyltranspeptidase (Bacillus anthracis Ames Ancestor) | purified CapD enzyme, fluorescence intensity read-out; active compounds read low; some hits fall short of the stated cut | z-score (test concentration not listed) | hit rate 0.23% among 140,000;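 active means z-score under -4 in either of two replicates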;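 further: stock transfer was 100 nL into about 40 µL; score is relative to mean and spread of the plate; one replicate is shown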
AID504770: growth inhibition of E. coli YBA685, primary screen, V. cholerae RctB inhibitors; AID 504770, 2011; z-score (no concentration beside the values); E. coli YBA685 rctB-dependent plasmid, OD600 growth, 3 h; active compounds read low; hit rate 0.27% among 130,000;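 active means z-score under -2 on both plates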;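 further: wells of about 30 µL received 100 nL stock; score is relative to mean and SD of the test wells; the first replicate is given; strong numbers were not always called active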
* marks the source's active call; other numbers are inactive results; . = no result given; & = joins results of further samples. An unsorted share of the library. Share with any hit: about 0.37%.

SMILES | CapD inh | AID504770
CCOC(=O)c1ccc(Cn2c3ccccc3c3nc4ccccc4nc32)o1 | 0.33 | .
O=C1/C(=C/c2ccc(-c3cc(Cl)ccc3Cl)o2)C=C(c2ccccc2)N1c1ccc(Br)cc1 | -0.18 | .
O=C(NC(=O)c1c(Cl)cccc1Cl)Oc1ccc(F)cc1F | -0.67 | .
Nc1nn(-c2cccc(F)n2)cc1-c1ccc(Cl)cc1 | 0.085 | -0.55
Cn1c(C(=O)N2CCCCCC2)cc2c(=O)[nH]c3ccccc3c21 | 0.16 | 1.4
CN(C(=O)C1CCCN1S(=O)(=O)c1ccc(Cl)cc1)c1ccccc1 (stereo not drawn) | 0.14 | -0.45
CC(=O)/C(N=Nc1ccc(F)cc1F)=C(\C)O | -1.5 | .
O=C(O/N=C1\CCS(=O)(=O)c2sccc21)c1ccc(Cl)nc1 | 0.085 | .
CC(=O)Nc1ccc(C(=O)OCC(=O)Nc2cccc(C(F)(F)F)c2)cc1 | -0.52 | 0.65
COCCn1c(=O)/c(=C\c2ccccc2OC(F)F)s/c1=C(/C#N)C(=O)N1CCOCC1 | . | 0.9
C=CCOC(=O)C1=C(C)NC(C)=C(C(=O)OCC=C)C1c1cn(-c2ccccc2)nc1-c1ccco1 | 1.5 | .
CC(C(=O)N1CCCc2ccccc21)N1C(=O)c2ccccc2C1=O (stereo not drawn) | . | -0.3
CNS(=O)(=O)c1cccc(C(=O)NCCc2ccc(S(N)(=O)=O)cc2)c1 | . | 2.2
Cc1ccc2c(c1)C1OCCC1C(c1ccncc1)N2 (stereo not drawn) | . | -0.3
Nc1ccc(Oc2ccc3c(c2)C(=O)N(Cc2cccnc2)C3=O)cc1 | . | -0.85
O=C(NCCCN1CCCC1=O)c1cccs1 | -0.09 | -0.25
COc1ccc(C2=NN(S(=O)(=O)c3ccccc3)C(c3ccc(OC)c(OC)c3)C2)cc1OC (stereo not drawn) | -1.3 | .
Cc1c(-c2ccnc(N)n2)cnn1-c1ccccc1 | 3.5 | -0.6
O=C(Nc1ccc(SC(F)(F)F)cc1)C(F)(F)F | -0.3 | -0.65
COCCN(C(=O)CCC(=O)N1CCc2ccccc2C1)C1CCN(C)CC1 | 0.085 | .
COCOC(=O)C1(c2ccc(Cl)cc2)CCCC1 | . | -0.65
CC1Cc2ccccc2N1C(=O)c1ccc(Cl)cc1 (stereo not drawn) | -0.075 | -1
CCOC(=O)C(C)Oc1cc(O)c2c(=O)cc(-c3ccccc3)oc2c1 (stereo not drawn) | 0.14 | 1.3
CC(C)(C)C(=O)Nc1nc(NC(=O)C(C)(C)C)nc(-c2ccccc2C(F)(F)F)n1 | 0.81 | 2

Filtered by structure: those above with a halogen.
SMILES | CapD inh | AID504770
O=C1/C(=C/c2ccc(-c3cc(Cl)ccc3Cl)o2)C=C(c2ccccc2)N1c1ccc(Br)cc1 | -0.18 | .
O=C(NC(=O)c1c(Cl)cccc1Cl)Oc1ccc(F)cc1F | -0.67 | .
Nc1nn(-c2cccc(F)n2)cc1-c1ccc(Cl)cc1 | 0.085 | -0.55
CN(C(=O)C1CCCN1S(=O)(=O)c1ccc(Cl)cc1)c1ccccc1 (stereo not drawn) | 0.14 | -0.45
CC(=O)/C(N=Nc1ccc(F)cc1F)=C(\C)O | -1.5 | .
O=C(O/N=C1\CCS(=O)(=O)c2sccc21)c1ccc(Cl)nc1 | 0.085 | .
CC(=O)Nc1ccc(C(=O)OCC(=O)Nc2cccc(C(F)(F)F)c2)cc1 | -0.52 | 0.65
COCCn1c(=O)/c(=C\c2ccccc2OC(F)F)s/c1=C(/C#N)C(=O)N1CCOCC1 | . | 0.9
O=C(Nc1ccc(SC(F)(F)F)cc1)C(F)(F)F | -0.3 | -0.65
COCOC(=O)C1(c2ccc(Cl)cc2)CCCC1 | . | -0.65
CC1Cc2ccccc2N1C(=O)c1ccc(Cl)cc1 (stereo not drawn) | -0.075 | -1
CC(C)(C)C(=O)Nc1nc(NC(=O)C(C)(C)C)nc(-c2ccccc2C(F)(F)F)n1 | 0.81 | 2

Next structures:
SMILES | CapD inh | AID504770
Cc1nc2ccccc2c2oc(C(=O)NCCN3CCCCCC3)cc12 | 6.7 | -0.3
COC(=O)C1=C(C)OC(N)=C(C#N)C1c1ccc(OC)c(CSc2ccccn2)c1 (stereo not drawn) | 2.8 | .
COc1ccc(C(=O)CSc2nnc(-c3ccc(OC)cc3)o2)cc1 | 0.28 | .
CCCCN(CC)Cc1c(C)[nH]c2ccc(Cl)cc2c1=O | 0.21 | -0.7
N#CC(C#N)=CNCCN1CCN(C=C(C#N)C#N)CC1 | 0.97 | 1
CN(CCOc1ccc(Cl)cc1)Cc1cc2c(cc1O)OCO2 | . | 0.1
Cc1c(NC(=O)CSc2nc3ccc([N+](=O)[O-])cc3s2)c(=O)n(-c2ccccc2)n1C | -1.1 | .
Cc1noc(C)c1COC(=O)c1ccccc1SCC(=O)N1CCCC1 | . | -2.6
CCc1ccc(C(N)c2cccs2)cc1 (stereo not drawn) | . | -0.8
O=C(Nc1ccc2c(c1)OCCO2)c1ccccc1NCC(=O)N1CCc2ccccc21 | . | -0.35
O=C1CC(c2nc3ccccc3[nH]2)CN1c1ccccc1 (stereo not drawn) | -0.45 | -1.1
Cc1ccc(Cc2nn[nH]n2)cc1C | 0.3 | 0.2
N=C(N)N1CCN(Cc2ccc3c(c2)OCO3)CC1 | . | 0.35
O=C(Oc1ccccc1)Oc1ccc2c(c1)oc(=O)c1ccccc12 | 4.9 | 0
O=C1CC(C(F)(F)F)=NN1c1ccccc1 | 0.12 | -0.15
O=C(OCC(=O)N1CCOCC1)c1ccc(-c2ccccc2)cc1 | . | -0.5
CC1=CC2=NC(C(F)(F)F)(C(F)(F)F)NC(=O)N2C=C1 | 0.38 | 0.35
Nc1cc(=O)[nH]c(SCC(=O)N(C2CCCCC2)C2CCCCC2)n1 | . | -0.5
COc1cc(C2C3=C(CC(C)(C)CC3=O)NC3=C2C(=O)CC(C)(C)C3)ccc1OCc1ccccc1 | 6.7 | .
COCCNC(=O)c1cc(-c2ccccc2F)no1 | -0.24 | 0.15
O=C1NC(=O)C(c2ccccc2)c2ccccc21 (stereo not drawn) | -0.29 | -0.15
O=C(CCn1c(SCC(=O)NC2CCCC2)nc2ccccc2c1=O)NC1CCCCC1 | 0.33 | 0.35
COc1ccccc1-c1c(C)nn2c(NCCCN3CCCC3=O)cc(C)nc12 | 0.39 | -0.75
COC(=O)COc1cccc(C2C3=C(CC(C)(C)CC3=O)OC3=C2C(=O)CC(C)(C)C3)c1 | 0.36 | .
CCOC(=O)c1c(C)oc(-c2ccc(Cl)cc2)c1S(=O)(=O)NCc1ccccc1 | 9.6 | 0
COC(=O)c1nn(-c2ccc(Cl)cc2)c(=O)cc1Oc1ccccc1Cl | -0.22 | .
COc1ccc(C2Nc3ccc(Cl)cc3C(c3ccccc3)O2)cc1 (stereo not drawn) | -0.22 | .
CCCCn1c(CNC(=O)c2ccc(OC)cc2)nnc1SC(C)C | -0.24 | -0.3
O=C1CN(C(=O)C23CC4CC(CC(C4)C2)C3)CC(=O)N1CCc1ccccc1 | 0.3 | 1.2
Cn1c(SCc2ccc(C(C)(C)C)cc2)nc(C(F)(F)F)cc1=O | -0.22 | .
O=C(O)c1cc(NN=C2CCCC2)ccc1Cl | . | 0.25
COc1ccc(N(CC(O)CN(CC(C)C)CC(C)C)S(=O)(=O)c2ccccc2)cc1 (stereo not drawn) | -0.39 | .
Oc1ccc(-c2nc3ccccc3[nH]2)cc1 | 15 | .
CCOC(=O)Cn1c(=O)oc2cc(S(=O)(=O)NCc3cccc(OC)c3)ccc21 | -1.4 | 2.1
O=C(CC1CCCCC1)Nc1ccc2c(c1)OCCO2 | -0.25 | 1.2
Cc1nonc1OCC(C)(N)COc1nonc1C | . | -1.1
CCOC(=O)CSc1nnnn1-c1ccccc1 | 1.7&6.7 | -0.45&-0.65
Cc1ccc2nc(-c3ccc(Cl)c(NC(=O)c4cccc(OCc5ccccc5)c4)c3)oc2c1 | 0.99 | .
O=c1[nH]c(CN2CCC(Cc3ccccc3)CC2)nc2ccccc12 | 5.3 | 0.3
NC(=O)C1CCN(c2nc(Nc3ccc(Cl)cc3)nc(Nc3ccc(Cl)cc3)n2)CC1 | 0.08 | 0.55
CCN1C(=O)c2ccc(-c3ccc(/C=C4/C(=O)N(c5ccc(C(=O)O)cc5)N=C4C)o3)cc2C1=O | -0.17 | .
COc1ccc(Br)c(-c2nnc(-c3ccccc3NC(=O)NC(=O)c3ccccc3Cl)o2)c1 | 1.7 | .
O=C1c2cccc3cccc(c23)N1CN1CCc2ccccc2C1 | -0.54 | -0.35
NNC(=O)C1C(=O)NCC1c1ccccc1 (stereo not drawn) | . | -0.95
CCCOc1ccc(C2Nc3ccccc3NC3=C2C(=O)CC(c2ccc(OC)cc2)C3)cc1OC (stereo not drawn) | -0.88 | .
CCOC(=O)N1CCN(C(=O)CSc2nnc(COc3ccc(Cl)cc3)o2)CC1 | 0.35 | -1.2
Cc1c(NC(=O)CCN2C(=O)/C(=C\c3ccc(Cl)cc3)SC2=S)c(=O)n(-c2ccccc2)n1C | 1 | .
Cc1cc(C(c2nnnn2Cc2ccccc2)N2CCOCC2)c(C)n1-c1ccc2c(c1)OCO2 (stereo not drawn) | . | 0.5
COCCn1c(O)c(C=NCCCCCc2nc(-c3ccc(C)cc3)no2)c(=O)[nH]c1=S | . | -1
Cc1cc(/C=C/C(=O)NCCc2ccccn2)c(C)n1Cc1ccco1 | . | 1.9
CC(C)CC(=O)Nc1c2c(nn1-c1ccc(Cl)cc1)CSC2 | 0.08 | -1
COc1ccc(C(=O)CN2C3=NCCN3c3ccccc32)cc1 | -0.43 | .
COC(=O)c1cc(O)cc(C(=O)OC)c1 | . | -0.45
O=C(CCSCc1cnn(-c2ccccc2)c1-n1cccc1)NCc1ccc2c(c1)OCO2 | -0.11 | 0.45
CC(C)(CC(=O)O)CC(=O)N1CCN(c2ncc(C(F)(F)F)cc2Cl)CC1 | -0.77 | .
Cc1ccc(C(=O)O)cc1NC(=O)CN1CC(=O)Oc2ccccc21 | -0.1 | -0.35
CC1=C(C)CC2C(=O)N(C(Cc3ccccc3)C(=O)O)C(=O)C2C1 (stereo not drawn) | 0.52 | 0.45
O=C(CNC(=O)c1ccc2c(c1)OCO2)NC1CC1 | . | 0.35
O=C(Cn1nc(Cc2ccncc2)c2ccccc2c1=O)NCc1ccccc1 | -1 | -0.55
CN1CCN(S(=O)(=O)c2ccc3oc(=O)c4ncn(C)c4c3c2)CC1 | 0.15 | -2.4*
Next part.
SMILES | CapD inh | AID504770
CN1CCN(c2nc3nonc3nc2Nc2ccc(F)cc2)CC1 | -1.4 | .
COc1ccccc1NC(=O)CSc1nc2ccccc2c(=O)n1CCC(=O)N1CCN(c2ccccc2)CC1 | 0.19 | .
CCCCn1cnc2sc3c(c2c1=N)CCCCC3 | -0.23 | 0.1
CN1CCN(NC(=O)COc2ccc(Br)cc2Cl)CC1 | 0.2 | -0.45
CNC(=S)NNC(=O)C(CCSC)NC(=O)c1ccc(C(F)(F)F)cc1 (stereo not drawn) | -0.31 | .
CCOc1ccc(C(=O)Nc2cc(C)ccn2)cc1 | 0.36 | 0.4
O=C(O)c1ccccc1N=Cc1ccccc1Cl | 47 | 0.05
CC1CC(C)CN(c2cnn(C34CC5CC(CC(C5)C3C(=O)O)C4)c(=O)c2Cl)C1 (stereo not drawn) | -1.7 | 1
Cc1ccc(-c2noc(CCC(=O)NC3CC3)n2)cc1 | -0.23 | 1.4
CCOC(=O)N1CCC(NC(=O)c2cc3c(-c4ccc(Cl)cc4)nn(C)c3s2)CC1 | 7 | 0.75
CCOC(=O)C1=CC(=C2C(=O)N(CC)C(=S)N(CC)C2=O)c2ccccc2O1 | 28 | -0.4
COC(=O)c1ccccc1NC(=O)C1CCCC1 | 6.1 | 1.5
Cc1cc(C)c(C#N)c(OC(C)C)n1 | 0.15 | -0.35
Cc1nn(-c2ccc(Cl)cc2)c2sc(C(=O)N(C)C3CCCCC3)cc12 | . | -0.2
Cc1cc(C)c(C(=O)O)c(CC(C)(C)C(=O)N2CCN(C(=O)c3ccc(F)cc3Cl)CC2)c1 | -0.19 | .
CC(=O)c1ccccc1OC(=O)c1ccc([N+](=O)[O-])o1 | -0.76 | .
Cn1c(CN2CCCC2)nc2cc(NC(=O)c3ccccc3)ccc21 | -0.07 | -0.2
CC(=O)OCC1OC(Sc2ccccn2)C(OC(C)=O)C(OC(C)=O)C1COC(C)=O (stereo not drawn) | 5.9 | .
COc1ccc(/C=C2\N=C(c3cc([N+](=O)[O-])ccc3Cl)OC2=O)c(OC)c1OC | -0.11 | .
CCOC(=O)c1c(C)oc2ccc(N(C(=O)c3ccc(Cl)cc3)S(=O)(=O)c3ccccc3)cc12 | -0.2 | .
O=C(O)CCc1ccc(-c2ccc(F)cc2)n1CCC(=O)O | . | 0.1
COc1ccc(N2CCN(S(=O)(=O)c3cccc(Cl)c3Cl)CC2C)cc1 (stereo not drawn) | -0.29 | .
Cc1ccc(C2=NC3(CCN(C(=O)c4ccccc4)CC3)NC2=O)cc1 | -1.9 | 0.3
N#C/C=C(\Cl)c1ccccc1 | -1.3 | 2.8
O=C(O)c1cnn(-c2ccccc2)c1-n1cccc1CNCc1ccccc1 | -0.11 | -1
CC1(C)NCCN2C(=O)CSC21 (stereo not drawn) | 0.49 | .
O=C1Nc2ccc(F)cc2C1=NCC1CC1 | 11 | .
CN(C)CCCSC(=N)N | 0.92 | .
CN1C(=O)C(=Cc2ccc(OCCN(C)c3ccccn3)cc2)C(=O)N(C)C1=O | 0.49 | .
CC(=O)c1sc2ccccc2c1C | 0.18 | .
O=C(NCCc1ccccc1)c1cc2ccccn2n1 | 44 | 0.15
CCn1nc(-c2cccs2)cc1C(=O)NC(C)C | 1.5 | -0.5
CC1CCCCC1NC(=O)CSc1nnc(CN2CCCC2=O)o1 (stereo not drawn) | . | 2
